# Lassa entry inh – inhibitors of Lassa virus binding or cell entry. AID 540256. Potency, µM (titrated, usually from 37.9 µM), for inactives: top-dose activity change, negative = inhibition, hits mostly inhibitors. 300,000 compounds, 1.2% hits. Lassa virus pseudotype entry inhibition, cell reporter; control for the full effect not named in the record; active means well fitted inhibition curve with a large enough effect; inconclusive means small, poorly fitted or top-dose-only effect, or effect the other way; inactive means flat fitted curve, though single readings scatter; tested in HEK293 cells; also: % is scaled to controls: 0 for no effect and ±100 for the full control effect; nearly all actives have a fitted effect of over 50% in size; luciferase read-out
# SARS PLpro yeast – SARS-CoV PLP inhibition in yeast; Potency, µM (titrated, usually from 32.9 µM), inactives show at the highest dose activity, positive = growth rescue; 330,000 compounds, 0.19% hits; AID 485353; S. cerevisiae expressing SARS-CoV PLpro, growth rescue; control for the full effect not named in the record; active means well fitted rising curve with a large enough effect; inconclusive means small, poorly fitted or top-dose-only effect; inactive means no such curve, though single readings can be large or run the other way; also: 0% is about no effect; nearly all actives have a fitted effect of over 55% in size; growth read by luminescence after 48 h
# RE007 growth inh – less growth of the S. pombe RE007 Vpr strain | S. pombe RE007 Vpr strain, BacTiter-Glo ATP luminescence, 24 h; control for the full effect not named in the record | Potency, µM (doses to about 92.2 µM), for inactives: at the highest dose activity change, negative = less growth | 360,000 compounds, 0.21% hits | AID 651644; active = well fitted falling curve with a large enough effect; inconclusive = small, poorly fitted or top-dose-only effect; inactive = no such curve, though single readings can be large or run the other way;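 also: % is scaled to controls: 0 for no effect and ±100 for the full control effect; nearly all actives have a fitted effect of over 50% in size; the assay follows cell death caused by Vpr and the record does not say whether a fall means rescue or toxicity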
#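 Fission yeast strain RE007, carrying one chromosomally integrated HIV-1 vpr copy, was seeded at OD 0.01 in PMG+AL medium with 23 nL pinned compound. After 24 h at 30 °C and 99% humidity, viability was read by BacTiter-Glo luminescence.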
# Cruzain noTriton – inhibitors of Trypanosoma cruzi cruzain without detergent; P25779; Potency, µM, without a hit: max response, negative = inhibition, actives largely listed as inhibitors; 200,000 compounds, 2.3% hits; purified cruzain, Z-FR-AMC fluorescence, no detergent;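 also: plate controls were enzyme without inhibitor for no effect and buffer without enzyme for full effect; nearly all actives have a fitted effect of over 40% in size; top concentration of the series not given in the record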
# Target sequence (P25779 123-467 limits assumed): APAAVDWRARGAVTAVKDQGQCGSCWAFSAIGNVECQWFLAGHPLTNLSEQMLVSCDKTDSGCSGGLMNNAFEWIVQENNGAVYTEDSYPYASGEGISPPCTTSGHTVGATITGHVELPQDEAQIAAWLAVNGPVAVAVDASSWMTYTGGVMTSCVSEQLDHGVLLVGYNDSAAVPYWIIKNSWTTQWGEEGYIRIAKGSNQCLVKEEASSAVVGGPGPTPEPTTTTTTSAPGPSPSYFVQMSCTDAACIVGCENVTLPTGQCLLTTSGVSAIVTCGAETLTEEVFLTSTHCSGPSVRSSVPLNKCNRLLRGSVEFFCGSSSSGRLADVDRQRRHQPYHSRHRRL
#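 Detergent-free condition (0.00005% Triton X-100) in acetate buffer pH 5.5 with DTT. 1.5 nM enzyme and compound were pre-mixed 15 min, then 2 uM Z-FR-AMC substrate added; reaction progress from fluorescence change between first and third reads (60 s).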
# Cruzain Triton – cruzain (T. cruzi) inhibition with detergent; P25779; purified cruzain, Z-FR-AMC fluorescence, 0.01% Triton; Potency, µM, for inactives: max response, negative = inhibition, hits mostly inhibitors; 200,000 compounds, 0.43% hits; AID 1478;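 also: plate controls were neutral wells for no effect and buffer without enzyme for full effect; nearly all actives have a fitted effect of over 40% in size; top concentration of the series not given in the record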
#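 Detergent-containing run (0.01% Triton X-100) in acetate buffer pH 5.5 with 5 mM DTT: enzyme at 1.5 nM final, 15 min compound preincubation at room temperature, then 2 uM Z-FR-AMC substrate. Activity taken as 60 s fluorescence increase at 360/450 nm.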
# 2A StopGo – lowers the luciferase signal of an FMDV 2A StopGo reporter; Potency, µM (highest dose often 57.9 µM), for inactives: top-dose signal change, negative = less light; 410,000 compounds, 1.2% hits; human cells with a luciferase reporter of 2A StopGo recoding; control for the full effect not named in the record; active = well fitted falling curve with a large enough effect; inconclusive = small, poorly fitted or top-dose-only effect; inactive = no such curve, though single readings can be large or run the other way; tested in HEK293T cells; also: % is scaled to controls: 0 for no effect and ±100 for the full control effect; nearly all actives have a fitted effect of over 45% in size; luciferase light after 4 h
# MARV entry inh – inhibitors of Marburg virus binding or cell entry; Marburg virus pseudotyped entry inhibition, cell reporter; control for the full effect not named in the record; about a third of the inactives were read at about 46 µM; 300,000 compounds, 1.8% hits; Potency, µM (series often up to 37.8 µM), inactives show at the highest dose activity change, negative = inhibition, most hits filed as inhibitors; active = well fitted inhibition curve with a large enough effect; inconclusive = small, poorly fitted or top-dose-only effect, or effect the other way; inactive = flat fitted curve, though single readings scatter; tested in HEK293 cells; about a fifth of its hits are not listed in these tables; also: % is scaled to controls: 0 for no effect and ±100 for the full control effect; luciferase read-out
# NS1 inh – inhibitors of influenza NS1 protein function. S. cerevisiae slowed by influenza A NS1, growth recovery by OD600. Potency, µM (titrated, usually from 46.1 µM), without a hit: at the top dose activity, positive = more growth. 270,000 compounds, 0.4% hits; active means well fitted rising curve with a large enough effect; inconclusive means small, poorly fitted or top-dose-only effect; inactive means no such curve, though single readings can be large or run the other way; also: nearly all actives have a fitted effect of over 50% in size
#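 Recovery from NS1-induced slow growth read by OD600 in budding yeast switched to galactose assay medium (pH 6.0, -URA) at 1:100 dilution. Compound 23 nl per well; the matching strain lacking NS1 serves as control.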
# An asterisk follows results filed as active; ? = inconclusive; nt = not tested or not shown; & = joins results of further samples; [ ] = dose if it differs, or a comment. Unless noted, calls follow the shape of the dose curve; as a rule, active = well fitted curve in the direction sought with a large enough effect; inconclusive = small, poorly fitted or top-dose-only effect, or another doubt; inactive = no such curve, though single readings can be large; an effect the other way counts as inactive or inconclusive. Potency is read from the fitted curve at half-maximal effect. An unsorted share of the library. About 4.8% of those tested had a hit in this group.
SMILES,Lassa entry inh,SARS PLpro yeast,RE007 growth inh,Cruzain noTriton,Cruzain Triton,2A StopGo,MARV entry inh,NS1 inh
COc1ccc(-c2c(C)nn(-c3ccccc3)c2N)cc1OC,-1%,11%,10%,-7%,-0.6%,25%,20%,-8%
CN(C(=O)CSC1=NCCS1)c1ccccc1,10%,0%,4%,5%,-1.2%,21%,3%,5%
CCc1c(C)nc2c(-c3ccccc3OC)c(C)[nH]n2c1=O,?,4%,9%,nt,nt,-18%,?,24%
CC(=O)NCc1ccc(-c2csc(N)n2)s1,6%,4%,4%,-7%,0.6%,50%[activator],10%,?
NC1=C([N+](=O)[O-])C(c2ccccc2)C2=C(CCCC2=O)O1 (stereo not given),10%,-8%,2%,8%,-5.4%,-1%,?,-10%
C=CCn1c(CSc2nc3ccccc3s2)nnc1SCC(=O)NCCN1CCOCC1,13%,1%,-7%,0%,-0.5%,1%,13%&13%,-5%
COc1ccccc1[C@H]1C(c2cccc(C)c2)=NN(c2ccccc2)[C@@H]1CO,nt,-57%,4%,18µM*,3.0%,-18%,nt,nt
NC(=O)c1sc2nc3c(c(-c4ccco4)c2c1N)CCCC3,nt,1%,20%,nt,nt,?,nt,-3%
Cn1c(=O)c2c(-c3cccc(F)c3)c3c(nc2n(C)c1=O)-c1ccccc1C3O (stereo not given),nt,2%,nt,0%,3.5%,nt,1%,10%
CN(Cc1ccccc1)c1ncnc2ccc(Br)cc12,-22%,0%,-22%,-16%,-6.0%,?,14%&14%,-35%
NC(=O)CSc1nc2scc(-c3ccco3)c2c(=O)n1-c1ccccc1,-4%,2%,8%,-5%,-3.8%,?,-9%,10%
CCOC(=O)C(C(C)=O)C(c1ccc(OCCC(C)C)cc1)C(C(C)=O)C(=O)OCC (stereo not given),?,-11%,6%,?,-3.9%,nt,?,-2%
COc1ccc(C(NCC(=O)Nc2c(C)cccc2C)c2ccccc2)cc1 (stereo not given),nt,-1%,-5%,nt,nt,-26%,nt,-36%
O=C(NCc1ccc2c(c1)OCO2)c1cc(-c2ccccc2Cl)on1,10%,-4%,-2%,6%,1.9%,80%[activator],3%,-22%
CCC(C)c1ccc(NC(=O)c2cccs2)cc1 (stereo not given),?,-21%,-9%,-3%,-3.9%,13%,?,-97%
O=C(Oc1cccc([N+](=O)[O-])c1)C1CCN(C(=O)c2ccc(F)cc2)CC1,6%,-3%,6%,nt,nt,-13%,-3%,8%
COc1ccccc1P(=O)(c1ccccc1)c1ccccc1NC(C)=O (stereo not given),nt,0%,2%,nt,nt,-8%,nt,5%
O=C(c1cc2cc(Br)ccc2o1)N1CCN(c2ccccc2)CC1,13%,2%,1%,nt,nt,25%,22%,2%
C=CCn1c(SC)nnc1C1COc2ccccc2O1 (stereo not given),?,8%,-11%,nt,nt,12%,-1%[46.1 µM],2%
O=C(NC1CCN(C(=S)NCc2ccco2)CC1)c1cccc(F)c1,-5%,2%,-6%,nt,nt,-7%,17%[46.1 µM],nt
COc1ccc(NC(=O)CN2C(=O)NC(C)(c3ccccc3)C2=O)cc1Cl (stereo not given),?,0%,4%,nt,nt,-11%,-26%[46.1 µM],6%
Cn1nnnc1SCC(=O)NCCCc1ccccc1,24%,-2%,6%,-4%,5.4%,25%,18%,-31%
N#CC(=C(O)COC(=O)CCCNC(=O)c1ccc(Cl)cc1)c1nc2ccccc2[nH]1,18%[46.1 µM],nt,7%,nt,nt,-7%,?,nt
CC(=O)Nc1ccc(Nc2nc(C)cc(C)n2)cc1,7%,-6%,1%,nt,nt,15%,13%,-3%
O=S1(=O)[C@H]2C[C@@H]3C=C[C@@]2(CN1Cc1cccc(Cl)c1)O3,nt,6%,10%,nt,nt,0%,nt,5%
COc1ccc(S(=O)(=O)N2CCOCC2)cc1NC(=O)CN1C(=O)NC(C)(C2CC2)C1=O (stereo not given),-2%,1%,-7%,nt,nt,3%,4%,nt
c1ccc(-c2csc(Cc3nnc4n3CCCCC4)n2)cc1,-1%,6%,0%,2%,-3.7%,17%,19%,9%
Cc1ccc(OCC(=O)NNC(=S)NC(=O)C(C)(C)C)c(Br)c1,?,-1%,3%,nt,nt,40%[activator],?,nt
CCN(c1ccccc1)S(=O)(=O)c1nnc(NC(=O)C(C)(C)C)s1,?,1%,26%,-8%,-3.8%,5%&-8%,nt,1%
COc1ccc(OC)c(S(=O)(=O)N2CCN(c3ccccc3)CC2)c1,nt,-14%,6%,nt,nt,5%,nt,-37%
Cc1ccc(S(=O)(=O)Nc2cc(=O)[nH]c(SCC(=O)Nc3cccc(C)c3)n2)cc1,nt,-4%,0%,nt,nt,-8%,nt,-1%
C#CCOCCOCCOCCNc1nc(N2CCN(C(=O)[C@H]([C@@H](C)CC)n3cc(CCCN=C(N)N)nn3)CC2)nc(N2CCN(C(=O)[C@H](C)n3cc(CCCN=C(N)N)nn3)CC2)n1,-19%,9%,-17%,?,?,-22%,2%,8%
COc1cc(C(=O)Nc2ccc(OCc3cc(=O)n4cc(C)sc4n3)cc2)cc(OC)c1OC,0%[46.1 µM],nt,nt,3%,0.6%,-5%,5%[46.1 µM],nt
CSc1ccc(-c2nc3cnccn3c2Nc2ccc3c(c2)OCO3)cc1,-22%,-13%,35%,-12%,-2.7%,?,?,18%
CC(=O)N(C)c1cccc([N+](=O)[O-])c1,1%[46.1 µM],6%,-12%,nt,nt,8%,2%[46.1 µM],nt
Cc1[nH][nH]c(=O)c1C(c1cc2c(cc1Br)OCO2)c1c(C)[nH][nH]c1=O,-3%,4%,3%,nt,nt,-7%,?,nt
COC(=O)c1ccc(NC(=O)c2cccnc2)cc1,nt,-1%,3%,nt,nt,6%,nt,-5%
COc1ccc(CN2CCN(c3ncccn3)CC2)c(OC)c1,-2%,-5%,-9%,-2%,2.9%,-13%,2%,10%
Cc1ccc(NCc2ccccc2-c2nnc(-c3ccccc3Cl)o2)cc1Cl,23%[46.1 µM],nt,nt,-12%,-1.1%,26%,3%[46.1 µM],nt
CCOC(=O)C1C(=O)CC(C)(O)C(C(=O)OCC)C1c1ccc(Br)cc1 (stereo not given),-6%,12%,-4%,?,2.8%,-22%,0%,3%
Cc1ccc(S(=O)(=O)c2[nH]c(-c3ccccc3)nc2SC(C)C(=O)O)cc1 (stereo not given),11%[46.1 µM],nt,nt,-2%,-2.9%,1%,-2%[46.1 µM],nt
COc1cc(C(=O)OC2CCOC2=O)cc(Cl)c1OC (stereo not given),15%[46.1 µM],-2%,-7%,nt,nt,2%,18%[46.1 µM],16%
Cc1ccc(Cn2c(CNC(=O)c3cccc(C)c3)nc3ccccc32)cc1,-13%[46.1 µM],nt,nt,-7%,-4.8%,11%,2%[46.1 µM],nt
Cc1ccc(-c2cn3c(=S)[nH]nc3s2)cc1,2%,-2%,4%,-3%,-2.7%,-14%,19%,-61%
COc1ccccc1NC(=S)NC(=O)c1c(-c2ccccc2Cl)noc1C,nt,-2%,-14%,nt,nt,-4%,nt,?
Cc1ccc(OCc2cc(C(=O)NCc3cc(F)ccc3C)no2)cn1,nt,-5%,-13%,nt,nt,-6%,nt,-26%
O=c1[nH]cccc1-c1nc2cc(Cl)ccc2n1Cc1ccccc1,nt,0%,3%,nt,nt,-26%,nt,-1%
O=C(CSc1nnnn1-c1ccccc1F)Nc1nc2ccccc2s1,5%,17%,-20%,?,-1.1%,nt,1%,-2%
c1ccc(OCc2nnc3sc(C4COc5ccccc5O4)nn23)cc1 (stereo not given),nt,6%,-20%,-21%,-11%,-23%,nt,-165%
CCOc1ccc(C(C(=O)NC2CCCC2)N(C(=O)CNC(=O)c2ccco2)c2cccnc2)cc1 (stereo not given),?,0%,-9%,nt,nt,-4%,1%[46.1 µM],?
Cc1nn(Cc2ccc(Cl)cc2Cl)c(Cl)c1C(=O)Nc1ccc(OC(F)F)cc1,6%,14%,-5%,-3%,-3.4%,?,-30%,11%
COc1ccccc1C(=O)NCC(=O)NCCc1ccc(Cl)cc1,13%[46.1 µM],-2%,1%,nt,nt,1%,1%[46.1 µM],9%
Cc1cc(C)c2oc(C(=O)N3CCN(Cc4ccccc4)CC3)cc(=O)c2c1,nt,1%,15%,nt,nt,-20%,nt,-2%
COC(=O)c1ccc(/C=C/c2c(-c3ccc(OC)cc3)oc3ccc(N4CCOCC4)cc23)cc1,nt,1%,3%,nt,nt,-7%,nt,?
CN(C)n1cccc1/C=C(\C#N)S(=O)(=O)c1cccc(Cl)c1,-14%,-3%,27%,nt,nt,-4%,1%[46.1 µM],-4%
COc1cccc(/C=N/Nc2nc3ccccc3[nH]2)c1OC,?,0%,-25%,nt,nt,43%[activator],?,-4%
O=C(c1cc(Cl)nc2ccccc12)N1CCN(Cc2ccc3c(c2)OCO3)CC1,-3%,-9%,1%,nt,nt,-28%,?,nt
Cc1cccc(-c2cc(C(=O)NCc3ccccn3)c3ccccc3n2)c1,-2%,-8%,-18%,8%,-6.5%,7%,-18%,-18%
O=[N+]([O-])c1cc(-c2ccc(/C=N/c3nc4ccccn4c3-c3ccco3)o2)ccc1Cl,5%,-26%,-28%,-10%,-23%,14%,-14%,-8%
O=C(O)CN1C(=O)CNC1=O,-4%,6%,5%,-4%,-0.3%,15%,13%,4%
# Further records.
SMILES,Lassa entry inh,SARS PLpro yeast,RE007 growth inh,Cruzain noTriton,Cruzain Triton,2A StopGo,MARV entry inh,NS1 inh
O=C(CCN(NC(=O)c1ccccc1)C1=NS(=O)(=O)c2ccccc21)NC1CCCCC1,13%,-9%,nt,11%,-2.4%,-19%,3%,0%
COc1ccc(C(NC(C)=O)c2nccc3cc(OC)c(OC)cc23)cc1OC (stereo not given),nt,1%,-23%,nt,nt,-4%,nt,8%
CC1CC(C)CN(S(=O)(=O)c2ccc(C(=O)N3CCCC3)cc2)C1 (stereo not given),-15%,6%,12%,nt,nt,-5%,13%,2%
O=C1C(=O)N(CCS(=O)(=O)c2ccccc2)c2ccccc21,nt,-3%,-2%,nt,nt,-2%,nt,-4%
CCC(C(=O)NCc1ccco1)n1nc(C)c2c(C)n(-c3ccccc3)nc2c1=O (stereo not given),12%[46.1 µM],-3%,6%,nt,nt,10%,0%[46.1 µM],17%
